# Compound activity from PubChem BioAssay.
# KCNQ2 block: KCNQ2 potassium channel inhibitors, primary screen, cell-based, CHO-K1, FluxOR thallium flux, B-score (AID 2156). 20 min; stronger effect = lower value; only compounds with negative scores are shown here; some inactives read as strong as hits. B-score at 10 µM. hit rate 1.1% among 310,000;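 active = fluorescence ratio B-score at most minus 3 library SDs, with starting brightness B-score within 2 library SDs, cut at about -5.5 in these data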
# Target sequence (O88943 whole entry, looked up): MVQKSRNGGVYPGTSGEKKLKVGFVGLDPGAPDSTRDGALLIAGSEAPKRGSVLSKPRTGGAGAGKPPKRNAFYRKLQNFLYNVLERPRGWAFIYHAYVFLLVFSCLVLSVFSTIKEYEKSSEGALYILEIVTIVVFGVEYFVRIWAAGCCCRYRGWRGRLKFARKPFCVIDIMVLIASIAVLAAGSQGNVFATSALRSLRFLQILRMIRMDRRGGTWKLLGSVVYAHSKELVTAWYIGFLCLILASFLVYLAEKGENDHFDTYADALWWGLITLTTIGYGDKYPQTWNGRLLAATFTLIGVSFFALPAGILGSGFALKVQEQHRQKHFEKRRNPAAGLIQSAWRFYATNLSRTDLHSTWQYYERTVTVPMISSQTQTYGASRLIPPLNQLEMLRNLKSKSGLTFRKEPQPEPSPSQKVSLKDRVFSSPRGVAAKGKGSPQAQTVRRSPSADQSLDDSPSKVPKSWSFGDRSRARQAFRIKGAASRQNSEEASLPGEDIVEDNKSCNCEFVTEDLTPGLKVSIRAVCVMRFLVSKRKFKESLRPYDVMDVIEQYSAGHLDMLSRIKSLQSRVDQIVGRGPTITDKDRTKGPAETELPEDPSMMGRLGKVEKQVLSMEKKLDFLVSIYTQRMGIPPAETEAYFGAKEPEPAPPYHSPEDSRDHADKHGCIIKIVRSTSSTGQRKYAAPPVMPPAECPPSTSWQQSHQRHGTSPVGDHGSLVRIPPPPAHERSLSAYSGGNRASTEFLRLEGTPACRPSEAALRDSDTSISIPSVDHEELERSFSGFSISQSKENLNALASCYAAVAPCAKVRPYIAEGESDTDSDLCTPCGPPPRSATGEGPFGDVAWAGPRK
# KCNQ2 block baseline: also measured in KCNQ2 block; calls as there; B-score; measured here: initial fluorescence intensity artifact check;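 brightness before thallium and not channel activity; 0 = typical well and far values either way flag optical interference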
# The depositor's hits bear a star; i = inactive. This is a subset. The share of hits here may be higher or lower than overall.
# Fields – KCNQ2 block, KCNQ2 block baseline
COc1ccc(NC(=O)CCSc2ccc(C)cc2)cc1S(=O)(=O)Nc1ccccc1Cl
  i, -0.22
COc1cccc(/C=N/NC(=O)c2cnccn2)c1OC
  i, 0.19
COc1ccc(OC)c(Nc2ncnc3sc(-c4ccccc4)cc23)c1
  i, -0.05
O=c1c2c3c(sc2n2c(=S)[nH]nc2n1-c1ccccc1)CCC3
  i, -2.2
COc1ccc(Nc2nc(NN)nc(C)c2[N+](=O)[O-])cc1
  i, -1.8
CC(NC(=O)NC(=O)c1cccc(Cl)c1)c1ccccc1 (stereo not drawn)
  i, -0.11
O=C(Nc1ccccc1C(=O)N1CCCCC1)c1ccc(Cl)cc1Cl
  i, 1.9
COc1ccc(C(=O)NNC(=O)C(=O)/C=C(\O)c2ccc(C)cc2)cc1
  i, -2.7
O=C(O)c1ccccc1-c1ccccc1C(=O)Nc1cccc(O)c1
  i, 0.16
CCO[C@H]1OC(C(=O)NCc2nc3ccccc3[nH]2)=C[C@@H](c2ccc(Br)cc2)[C@@H]1CCCO
  i, -1
C=CCn1c(=S)[nH]c2cc(C(=O)Nc3ccc(F)cc3)ccc2c1=O
  i, -1.1
Nc1nsc2ccccc12
  i, -1.3
Cc1ccc(C(=O)N[C@H](C(=O)OCC(=O)c2ccc[nH]2)C(C)C)cc1
  i, -3.5
COc1ccccc1Nc1nc(NCC2CCCO2)c2ccccc2n1 (stereo not drawn)
  i, -0.31
Cc1ncoc1C(=O)N1CCCC(C(=O)c2ccc(-c3ccccc3)cc2)C1 (stereo not drawn)
  i, 1.9
COc1ccc(Cc2noc(CN3CCN(C4CCc5ccccc5C4)CC3)n2)cc1OC (stereo not drawn)
  i, -0.33
CC(=O)c1c(OC(=O)c2ccc(C)cc2)c2ccccc2n1C
  i, -0.04
CC(=O)Nc1ccc(NC(=O)C(C)OC(=O)c2ccc(-n3cnnn3)cc2)cc1 (stereo not drawn)
  i, -0.59
Cc1ccc(CN2CCN(CCCc3ccccc3)CC2CCO)cc1 (stereo not drawn)
  i, 0.87
CC(NC(=O)CCC(=O)c1ccccc1)c1ccc(F)cc1 (stereo not drawn)
  -8.8*, -1*

# More structures
# Fields – KCNQ2 block, KCNQ2 block baseline
Cc1ccc(SCc2c(C(=O)N/N=C/c3ccccc3)nnn2-c2nonc2N)cc1
  i, -0.05
CCOC(=O)C1=C(N)Oc2cc(C)n(C)c(=O)c2C1c1ccncc1 (stereo not drawn)
  i, -1.2
CN(CC(=O)NC1CC(C)(C)NC(C)(C)C1)S(=O)(=O)c1ccc(Br)cc1
  i, -0.18
Cc1cc(C)c(C)c(OCC(=O)N2CCCCCC2)c1
  i, 1.9
C=CCNC(=S)NNc1ncnc2sc3c(c12)CC(C)(C)OC3
  i, 0.78
CCCCNC(=O)COC(=O)c1ccc(NS(=O)(=O)c2ccc3c(c2)OCCO3)cc1
  i, -1.4
C=CCn1c(=NC(=O)c2cc(-c3cccs3)nc3ccccc23)sc2cc(S(N)(=O)=O)ccc21
  i, 0.19
Cn1c(=O)cc(-c2ccccc2)c2ccccc21
  i, -0.66
CC(=O)CCS(=O)(=O)c1ccc(C)c(C)c1
  i, 1.4
CC(C)N1C(=O)CCN(C=O)c2ccccc21
  i, 0.83
Cn1c(=O)c2c(nc(CN3CCN(C(=O)c4ccco4)CC3)n2CCCc2ccccc2)n(C)c1=O
  i, -1.1
CSc1nnnn1-c1ccc(Cl)cc1
  i, 0.14
COC(=O)c1ccc(C)c(NS(=O)(=O)c2ccc(OC)cc2)c1
  i, 0.02
CC1(CCc2ccccc2)NC(=O)N(Cc2nnc(-c3ccccc3Br)o2)C1=O (stereo not drawn)
  i, -0.05
COc1cc(CNCCc2ccccc2)ccc1OCC(=O)NC(C)(C)C
  i, 0.27
O=C(O)CCCCCn1c(SCC(=O)N2CCCC2)nc2ccsc2c1=O
  i, -1.2
CCCn1c(=O)c(C(=O)Nc2ccccc2)c(O)c2ccccc21
  i, 0.62
CCN(CC)S(=O)(=O)c1ccc(NC(=O)COC(=O)CNS(=O)(=O)/C=C/c2ccccc2)cc1
  i, 0.74
COc1cc(C(=O)Nc2ccccc2C(=O)Nc2ccccn2)cc(OC)c1OC
  i, -0.02
COCc1ccc(C(=O)N2CCCC(N3CCN(c4ccc(F)cc4)CC3)C2)o1 (stereo not drawn)
  i, 1.1

# Carrying on.
# Fields – KCNQ2 block, KCNQ2 block baseline
COC(=O)c1nnc(-c2ccccc2)nc1OC
  i, 0.71
C=CCNC(=O)c1c(Cl)nc(C)c([N+](=O)[O-])c1C
  i, 2.4
Cc1ccc(NC(=O)CSCc2cc(=O)n3nc(C4CC4)sc3n2)cc1
  i, 1.5
Cc1ccc(S(=O)(=O)c2c(N)n(CCN3CCOCC3)c3nc4ccccc4nc23)cc1C
  i, 1.3
CC(C)(C)N(NC(=O)Nc1ccc(Cl)cc1)C(=O)c1ccccc1
  i, 1.4
O=C(CSc1nc(C2CC2)nc2ccccc12)N1CCc2ccccc2C1
  i, 1.4
CC(CN(C)Cc1ccccc1)OC(=O)c1cccc(F)c1 (stereo not drawn)
  i, -0.16
O=C(N/N=C/c1ccc2c(c1)OCO2)c1cccc(NC(=O)c2ccccc2Cl)c1
  i, -1.9
CCCC(c1nnnn1CCC(C)C)N1CCC(C(N)=O)CC1 (stereo not drawn)
  i, 0.15
Cc1[nH]c2c(Cl)cccc2c1CCNC(=O)C1CCCCC1C(=O)OCC(F)(F)F (stereo not drawn)
  i, 2
Cc1ccc(S(=O)(=O)N2CCC(=O)N(C(COCc3ccc(Cl)c(Cl)c3)Cc3ccccc3)CC2)cc1 (stereo not drawn)
  i, 0.03
NC(=O)CSc1oc(-c2ccco2)nc1S(=O)(=O)c1ccc(Br)cc1
  i, 0.51
CCOC(=O)c1c(C)[nH]c(C2=NNC(=NC3CC3)SC2)c1C
  i, 2.4
CCOC(=O)c1cccc(NC(=O)CSc2nnc(CNc3ccc(C)cc3)n2CC)c1
  i, 1.5
CCOC(=O)c1nn(-c2ccccc2C)c2nc(Nc3ccccc3)cc(=O)n12
  i, 0.02
CCc1nc(C#N)c(N2CCOCC2)o1
  i, -0.18
Cc1ccc(N(CC(=O)NC2CCCC2)C(=O)CCC(=O)Nc2nccs2)c(C)c1
  i, -0.58
CCOc1ccccc1NC1=CC(=O)CC(c2ccccc2)C1 (stereo not drawn)
  i, 0.56
COc1cc(C(=O)NCCC(=O)NCCCN2CCCCC2)cc(OC)c1OC
  i, 0.17
COCc1nc2ccccc2n1CCOc1ccccc1OC
  i, 0.53

# Molecules listed so far containing an NH in an aromatic ring:
# Fields – KCNQ2 block, KCNQ2 block baseline
O=c1c2c3c(sc2n2c(=S)[nH]nc2n1-c1ccccc1)CCC3
  i, -2.2
CCO[C@H]1OC(C(=O)NCc2nc3ccccc3[nH]2)=C[C@@H](c2ccc(Br)cc2)[C@@H]1CCCO
  i, -1
C=CCn1c(=S)[nH]c2cc(C(=O)Nc3ccc(F)cc3)ccc2c1=O
  i, -1.1
Cc1ccc(C(=O)N[C@H](C(=O)OCC(=O)c2ccc[nH]2)C(C)C)cc1
  i, -3.5
Cc1[nH]c2c(Cl)cccc2c1CCNC(=O)C1CCCCC1C(=O)OCC(F)(F)F (stereo not drawn)
  i, 2
CCOC(=O)c1c(C)[nH]c(C2=NNC(=NC3CC3)SC2)c1C
  i, 2.4

# Further structures follow:
# Fields – KCNQ2 block, KCNQ2 block baseline
COC(=O)c1nn(-c2ccc(OC)cc2)ccc1=O
  i, 0.47
CC1Cc2ccccc2N1CC(=O)NC(=O)NC(C)(C)C (stereo not drawn)
  i, 2.2
CNC(=S)Nc1ccc(OC(F)(F)F)cc1
  i, -0.02
CC(=O)N1CCC2(CC1)C(C#N)=C(N)Oc1n[nH]c(C)c12
  i, 1
COc1ccc(C(C(=O)NC(C)(C)C)N(C(=O)CCC(=O)Nc2cc(C)on2)c2ccc3c(c2)OCCO3)cc1 (stereo not drawn)
  i, 0.47
CCC(=O)N1CCN(c2ccc(NC(=S)NC(=O)C(C)C)cc2)CC1
  i, -0.49
CCn1c(SCC(=O)N(C)CCC#N)nc2cc(S(=O)(=O)N3CCOCC3)ccc21
  i, -0.55
CC(=O)Nc1ccc2c(c1)CCc1ccccc1-2
  i, 0.85
CC(C)C(NC(=O)OCc1ccccc1)C(=O)OCC(=O)NC1CC1 (stereo not drawn)
  i, -0.54
O=C(NCc1ccc(OC(F)(F)F)cc1)C1CCC(=O)N(C2CC2)C1 (stereo not drawn)
  i, 1.6
CCOc1ccccc1C1c2cc3c(cc2OC(C)(N2CCCC2)C1C)OCO3 (stereo not drawn)
  i, 0.38
Cc1cc(-c2n[nH]c(=S)n2/N=C/c2ccco2)n[nH]1
  i, -0.43
COc1ccc(-n2c(COc3ccc(C)cc3)nnc2SCc2ccc(C#N)cc2)cc1
  i, -1.4
O=C(NC1CCSc2ccccc21)c1ccccc1F (stereo not drawn)
  i, 1.6
CCOC(=O)Cc1nnc(NC(=O)CSc2ncc(-c3ccccc3)nn2)s1
  i, -0.34
Cc1ccc(C(=O)c2cc([N+](=O)[O-])ccc2N2CCOCC2)cc1C
  i, -0.11
CC(C)(C)OC(=O)N1Cc2ccccc2C[C@H]1C(=O)NC1CCCC1
  i, -0.08
S=c1[nH]nc(CCSCc2ccccc2)n1-c1ccccc1
  i, -0.44
CCC(CC)c1nnc(NC(=O)c2cc(-c3ccccc3)nc3ccccc23)s1
  i, 0.3
Cc1ccc(C(=O)O/N=C(\N)c2ccc(C(F)(F)F)cn2)cc1
  i, 1.3

# Compound profiles, as listed above. Values in the order: KCNQ2 block | KCNQ2 block baseline
# Results for `Cn1c(=O)c2c(nc(CN3CCN(C(=O)c4ccco4)CC3)n2CCCc2ccccc2)n(C)c1=O` → i | -1.1
# Results for `COC(=O)c1nnc(-c2ccccc2)nc1OC` → i | 0.71
# Results for `CC(=O)Nc1ccc2c(c1)CCc1ccccc1-2` → i | 0.85

# (further entries)
# Fields – KCNQ2 block, KCNQ2 block baseline
CCOC(=O)C1=C(CN2CCOCC2)NC(=O)NC1c1cccc([N+](=O)[O-])c1 (stereo not drawn)
  i, 0.04
O=S(=O)(NCc1cccnc1)c1ccc(Cl)c2ccccc12
  i, 0.05
CC1=C(C(=O)OCc2ccccc2)C(c2cccc(Br)c2)NC(=O)N1 (stereo not drawn)
  i, -0.69
Cc1[nH]c2ccccc2c1SCCNC(=O)c1ccc(Br)o1
  i, 0.52
COCCN=C1Sc2nc3ccc(C)cc3cc2CN1Cc1ccco1
  i, -0.55
CCOc1ncccc1C(=O)OCc1ccc(Cl)cc1
  i, -1.4
Cc1cccc(C(=O)NC2CC3CCCC(C2)N3S(=O)(=O)c2ccccc2)c1 (stereo not drawn)
  i, -0.09
CCOc1ccccc1NC(=O)c1ccc([N+](=O)[O-])cc1
  i, -0.04
COc1ccc(S(=O)(=O)N2CCN(C(=O)c3ccc(C)o3)CC2)cc1
  i, -1.2
O=C(OCc1cccc(C(F)(F)F)c1)c1cc(S(=O)(=O)N2CCOCC2)ccc1F
  i, 0.73
CCOc1ccc(C(=O)NCCC(=O)NCCCC(=O)O)cc1
  i, 2.1
COc1cccc(-c2nc(NCCN3CCOCC3)c3ccccc3n2)c1O
  i, 0.18
COc1cc(C(=O)NCCC(=O)NC(C)CCc2ccccc2)cc(OC)c1OC (stereo not drawn)
  i, -0.21
COc1oc(-c2ccc(Cl)cc2)nc1C(F)(F)F
  i, 1.2
CN(C)c1ccc(-c2nn3c(C4CCCCC4)nnc3s2)cc1
  i, -0.87
CCC(C)(C)c1nnc(NC(=O)C2CCN(C(=O)c3ccco3)CC2)s1
  i, 0.51
COc1ccc(C(=O)N/C(=C\c2ccc(Cl)cc2)C(=O)NCC2CCCO2)cc1 (stereo not drawn)
  i, 0.68
Cc1ccc(-c2csc(NC(=O)c3cc([N+](=O)[O-])ccc3N3CCOCC3)n2)cc1
  i, -0.17
O=C(N/N=C/c1c(Cl)[nH]c2ccccc12)c1sc2ccccc2c1Cl
  i, 0.09
C/C(=N/N=C(/C)c1cccs1)c1cccs1
  i, -3.7

# Going on with the list.
# Fields – KCNQ2 block, KCNQ2 block baseline
CCc1noc(C)c1C(=O)N(C)CC(=O)Nc1ccccc1Br
  i, -0.68
Cc1cc(C)cc(OCC(=O)OCc2nnc(-c3ccccc3)o2)c1
  i, -1.3
CCc1ccc2c(c1)C(O)(CC(=O)c1cccs1)C(=O)N2 (stereo not drawn)
  i, 1.3
O=C1NC(c2ccccc2)Nc2c1sc(=S)n2-c1ccccc1 (stereo not drawn)
  i, -0.17
CCOC(=O)c1nn(-c2ccccc2F)c(-c2ccccc2)c1C(=O)c1ccccc1
  i, -0.12
CCCCCCCNC(=O)CN1N=C(c2ccc(C)cc2)CCC1=O
  i, 0.83
COc1ccc(CCn2c(C)cc(C(=O)COC(=O)c3cnc(C)cn3)c2C)cc1
  i, 0.15
CC(=O)C1C(c2ccc([N+](=O)[O-])cc2)c2c(noc2C)CC1(C)O (stereo not drawn)
  i, -0.02
NC(=O)COc1ccc(NC(=O)CC23CC4CC(CC(C4)C2)C3)cc1
  i, 0.67
O=C(Oc1ccc(=O)n(-c2ccccc2)n1)c1ccc(Cl)cc1
  i, -0.24
C[C@@H]1CC2[C@@H]3CC[C@H]4CC(=O)CC[C@]4(C)C3=CC[C@]2(C)[C@@]1(O)C(=O)CO (stereo partly drawn)
  i, -2.1
CNC(=S)NNc1ccccc1[N+](=O)[O-]
  i, 0.01
COCC(=O)N(Cc1nc2ccccc2c(=O)[nH]1)Cc1cccs1
  i, -1.3
COc1ccccc1C1CC(c2ccco2)=NN1S(C)(=O)=O (stereo not drawn)
  i, 0.14
COc1ccc(S(=O)(=O)N2CCCC(C(=O)Nc3ccc(OC)c(OC)c3)C2)cc1 (stereo not drawn)
  i, 1.7
CCOC(=O)N1CCN(S(=O)(=O)c2cccs2)CC1
  i, -0.03
CCCn1c(N)c(N(CCOC)C(=O)c2ccc(C#N)cc2)c(=O)[nH]c1=O
  i, 1.6
Cc1cc(C(=O)Nc2cccc(/C=C/C(=O)O)c2)c(C)o1
  i, -0.2
